# LANA-H2A inh – blocks KSHV LANA binding to histone H2A/H2B; Q9QR71; cell-free LANA-H2A/H2B peptide, fluorescence polarization; inhibition, % (test concentration not listed); 320,000 tested, 0.6% active; in the data active = inhibition mostly above about 10%, no sharp cut-off; inactive = mostly below about 6.7%;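 also: stock transfer was 7.5 nL into about 10 µL; 0% = median of vehicle wells and 100% = median of positive control wells; one replicate is shown; the record names a cut of 25% in any replicate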
# Target sequence (Q9QR71 whole entry, looked up): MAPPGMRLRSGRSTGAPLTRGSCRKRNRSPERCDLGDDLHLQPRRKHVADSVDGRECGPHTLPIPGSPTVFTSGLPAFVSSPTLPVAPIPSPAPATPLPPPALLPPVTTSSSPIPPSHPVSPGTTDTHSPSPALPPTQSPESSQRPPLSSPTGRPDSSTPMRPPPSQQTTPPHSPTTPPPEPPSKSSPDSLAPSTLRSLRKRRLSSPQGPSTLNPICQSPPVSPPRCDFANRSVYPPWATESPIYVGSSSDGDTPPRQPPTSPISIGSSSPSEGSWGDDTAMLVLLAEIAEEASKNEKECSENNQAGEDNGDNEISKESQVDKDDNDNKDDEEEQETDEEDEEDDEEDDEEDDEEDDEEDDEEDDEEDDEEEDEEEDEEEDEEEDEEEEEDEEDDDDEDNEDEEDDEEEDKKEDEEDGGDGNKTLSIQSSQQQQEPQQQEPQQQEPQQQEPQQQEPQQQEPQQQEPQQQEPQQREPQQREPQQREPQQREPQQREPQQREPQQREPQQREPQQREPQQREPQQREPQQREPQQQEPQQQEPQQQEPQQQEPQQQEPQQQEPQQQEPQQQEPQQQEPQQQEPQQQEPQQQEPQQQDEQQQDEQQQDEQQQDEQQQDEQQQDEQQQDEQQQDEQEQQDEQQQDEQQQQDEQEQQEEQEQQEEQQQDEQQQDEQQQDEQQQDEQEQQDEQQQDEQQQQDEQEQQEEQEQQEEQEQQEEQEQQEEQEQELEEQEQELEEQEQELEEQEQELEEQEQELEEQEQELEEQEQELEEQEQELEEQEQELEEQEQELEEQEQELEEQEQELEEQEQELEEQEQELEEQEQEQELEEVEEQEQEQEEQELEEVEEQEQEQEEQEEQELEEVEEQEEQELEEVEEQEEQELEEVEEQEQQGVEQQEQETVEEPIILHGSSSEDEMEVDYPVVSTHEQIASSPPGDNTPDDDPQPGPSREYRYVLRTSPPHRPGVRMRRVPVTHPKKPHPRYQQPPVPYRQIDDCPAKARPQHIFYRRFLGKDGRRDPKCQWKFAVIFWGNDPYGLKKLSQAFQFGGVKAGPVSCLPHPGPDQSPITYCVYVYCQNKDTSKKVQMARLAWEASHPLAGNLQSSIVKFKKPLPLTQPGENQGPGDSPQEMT
# HNF4A DNA FP – change in binding of human HNF4 alpha to DNA | HNF4a-FITC DNA binding, fluorescence polarization, 1 h | 360,000 tested, 0.3% active | P41235 | activity change, % at 10 µM | AID 1224865; in the data active = activity change above about 30%, passing the limit was not always enough;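 also: controls were the assay level and a saturating level of protein; the project sought stronger binding though the title names inhibitors; some compounds called inactive have numbers as strong as hits; positive values seem to mean higher polarization but the record does not say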
# ALR H2O2 inh – human ALR oxidase inhibition via reduced H2O2; 290,000 tested, 3.8% active; inhibition, % (no concentration beside the values); purified ALR, DTT oxidation, H2O2 HRP-luminol luminescence; P55789;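 active = mean and each replicate at 75% or more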;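 also: stock transfer was 7.5 nL into about 7.5 µL; 0% = neutral wells and 100% = wells with inactivated enzyme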
# B2AR ag – human beta-2 adrenergic receptor agonism by FAP; 340,000 tested, 0.43% active; Am2.2-beta2AR cells, FAP receptor internalization, flow cytometry; reference of the scale not given here; P07550; response, % (no concentration beside the values);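 active = response above a set limit, near 3 SD of response in nonfluorescent compounds, cut at about 42% in these data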;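 also: stock transfer was 100 nL into about 11 µL; a reference agonist was the positive control; negative values mostly stem from fluorescent compounds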
# E coli growth – blocks Escherichia coli growth; OD600, 23 h; stronger effect = lower value; OD600 absorbance (concentration not given with the values); 330,000 tested, 0.21% active;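 active = OD600 absorbance below the run mean of sample wells minus 3.6 SD, in any replicate, cut at about 0.56 in these data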;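 also: stock transfer was 300 nL into about 60 µL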
# FGF22 binding – FGF22 (human) thermal shift binding | calls only at 9.99 µM | AID 651658 | Q9HCT0 | 340,000 tested, 1.5% active | recombinant FGF22 thermal shift, SYPRO orange fluorescence; percent of sucrose octasulfate shift, DMSO zero;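 active = melting point raised past a set limit in the mean and every replicate; three in four hits are not shown here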
# UCH37 DUB inh – human UCH37 deubiquitinating enzyme inhibition. AID 588478. Q9Y5K5. 330,000 tested, 0.33% active. inhibition, % (test concentration not listed). purified proteasome/UCH37, Ub-AMC cleavage fluorescence;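 active = mean of two replicates above 20%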;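 also: 0% = compound-free wells with enzyme and 100% = wells lacking proteasome; stock transfer was 100 nL into about 20 µL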
#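 Material: Human UCH37 enzyme supplied as purified proteasome complex | Schedule: 30 min compound-proteasome preincubation then 25 min substrate reaction, room temperature | Detection: AMC fluorescence from Ub-AMC cleavage, excitation 355 nm, emission 460 nm | Benchmarks: Wells without proteasome as full block, compound-free enzyme plus substrate as uninhibited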
# The depositor's hits bear a star; i = inactive; . = not tested or not shown. An excerpt. The share of hits here may be higher or lower than overall.
LANA-H2A inh,HNF4A DNA FP,ALR H2O2 inh,B2AR ag,E coli growth,FGF22 binding,UCH37 DUB inh,compound
-0.3,1.5,-4,0,0.67,.,2.1,Cc1nn(Cc2ccccc2)c(C)c1NC(=O)c1cc(-c2cccs2)on1
-4.2,-1.4,7,-10,0.69,i,4.7,CCOc1ccc(S(=O)(=O)Nc2ccc(C(=O)NNC(=O)c3ccncc3)cc2)cc1
-6.1,-5.2,.,1,0.68,.,-1.2,CCCCn1c(Cc2ccccc2)nnc1SCC(=O)N1CCOCC1
1.0,1.6,2,1,0.75,.,1.1,CCc1nnc(NC(=O)c2cc3c(s2)CCCCC3)s1
-1.8,1.1,-28,-1,0.66,i,-32,Cc1nc(CN(C)C(=O)CC2C(=O)NCCN2Cc2ccc(F)cc2)cs1 (stereo unspecified)
9.3,-2.1,98*,-6,0.7,i,2.8,O=C(c1ccc(CS(=O)Cc2ccccc2Cl)o1)N1CCN(C2CCCCC2)CC1 (stereo unspecified)
0.6,-1.6,-4,-5,.,i,-0.9,C=C[C@H](CC(C)C)N(Cc1ccccc1)S(=O)(=O)N(Cc1ccc(OC)cc1)[C@H](C=C)CC(C)C
-4.1,-1.7,.,2,0.63,i,-1.3,Cc1ccccc1C[n+]1cccc2ccccc21
-4.5,20,-9,2,.,.,.,C#CCOCCOCCOCCNc1nc(N2CCN(C(=O)[C@H]([C@@H](C)CC)n3cc([C@@H](N)Cc4ccc(O)cc4)nn3)CC2)nc(N2CCN(C(=O)[C@H](Cc3cc4ccccc4[nH]3)n3cc([C@@H](N)CC(C)C)nn3)CC2)n1
1.8,-2.1,-5,-9,0.73,i,-2.3,Cc1cc(NC(=O)COC(=O)c2ccc(S(=O)(=O)C(F)F)cc2)n(-c2ccccc2)n1
-4.4,3.0,-12,1,0.77,i,3.1,CC(C)C(NS(=O)(=O)c1ccc2c(c1)C(C)(C)C(=O)N2C)C(=O)NCc1ccccc1Cl (stereo unspecified)
2.6,-3.7,-13,-13,0.68,i,1.9,COc1ccc(NC(=O)CCS(=O)(=O)c2ccc3c(c2)oc(=O)n3C)cc1
.,-0.5,.,-1,0.7,i,5.1,c1ccc(NCCc2ccccn2)cc1
-11,5.6,-4,-5,0.67,.,4.1,O=C(CSc1nn(-c2ccccc2)c(=S)s1)Nn1cnnc1
3.5,2.0,.,7,0.66,i,7.1,O=[N+]([O-])/C=C1\C=CC=CN1Cc1ccc(Cl)cc1
1.1,-4.0,100*,1,0.68,.,6.4,CCCCOC(=O)c1ccc(NC(=O)CSC2=Nc3ccccc3C3CC=NN23)cc1 (stereo unspecified)
10,3.1,-36,0,0.67,i,4.4,Cc1cc2nc[nH]c2cc1[N+](=O)[O-]
-7.1,-2.3,2,2,0.65,i,1.3,COc1ccc(Cl)cc1NC(=O)CNCC(c1ccccc1)N(C)C (stereo unspecified)
-0.3,11,4,1,0.63,i,4.2,O=C(Nc1cccnc1)c1cccc(S(=O)(=O)N2CCOCC2)c1
0.0,-2.4,98*,-8,0.66,.,4.1,CCOc1ccc(-c2nc(CSCC(=O)NCc3ccco3)c(C)o2)cc1
-4.4,-1.9,-7,17,0.7,i,0.0,C=C1CN(CC(=O)OC)S(=O)(=O)c2ccccc21
1.8,2.5,-12,-2,0.66,i,-5.9,O=C(NCCCN1CCOCC1)c1ccccc1NS(=O)(=O)c1ccc(F)cc1
5.8,-4.1,-1,-13,0.65,.,4.4,COc1ccccc1NS(=O)(=O)c1cccc(NC(=O)NC2CCCCC2)c1
0.6,2.4,-3,2,0.7,i,2.9,O=C(CN1C(=O)NC2(CCCC2)C1=O)Nc1cccc(Cl)c1
4.8,-4.1,-5,3,.,i,.,FC(F)(F)c1cccc(-c2ccc(/C=N/Nc3nncc(-c4ccccc4)n3)o2)c1
3.0,-0.5,-16,-1,0.74,.,-1.5,N#Cc1nc(Cc2cccc3ccccc23)oc1N1CCC(C(N)=O)CC1
-2.9,2.0,-1,-12,0.7,i,1.4,CCOc1ccc(C(=O)NCC(=O)NCCCn2nc(C)cc2C)cc1OCC
2.3,0.0,.,1,0.67,.,-0.7,COC(=O)CCCC[C@@H]1SC[C@@H](NC(=O)OC)[C@@H]1NC(=O)OC
-2.1,4.2,-13,-2,0.75,i,6.9,COc1ccc(C(O)P(=O)(OCC(C)C)OCC(C)C)c(OC)c1 (stereo unspecified)
-2.1,0.2,2,-6,0.66,i,1.7,CC(=O)c1cccc(S(=O)(=O)N2CCCC(c3nc4c(nnn4Cc4cccc(Cl)c4)c(=O)[nH]3)C2)c1 (stereo unspecified)
1.3,1.6,14,0,0.66,i,1.9,COc1ccccc1N1CCN(C(=O)CSc2nnc3c4ccccc4n(CC(=O)O)c3n2)CC1
1.7,3.3,-2,-8,.,i,.,C/C(=N\O)C1CC(CC(=O)O)C1(C)C (stereo unspecified)
4.2,0.8,-16,3,0.66,.,0.8,COc1ccc(O)c(C2=Nc3ccccc3N=C(c3ccco3)C2)c1
-1.0,-2.4,-1,-6,0.69,i,4.8,O=C(CN1C(=O)COc2ccccc21)NC1CCCC1
2.7,-0.8,-5,10,.,.,4.5,CC(=O)N1c2c(ccc3ccccc23)C(C)CC12CCCCC2 (stereo unspecified)
-2.5,.,-10,.,0.74,.,3.3,CC1(C)CC[C@]2(C(=O)O)CC[C@]3(C)C(=CCC4[C@@]5(C)CC[C@H](O)C(C)(C)C5[C@H](O)C[C@]43C)[C@@H]2C1 (stereo partly specified)
7.1,2.5,-11,-1,0.67,i,3.3,CC(=O)c1c[nH]c(C(=O)NCc2ccccc2Cl)c1
-1.5,-0.2,.,10,0.71,i,0.5,COc1cc(C2C(C#N)=C(N)Oc3cc4c(cc32)OCO4)cc(OC)c1OC (stereo unspecified)
-12,0.5,.,7,0.77,.,2.8,COc1ccc(C2C(C#N)=C(N)Oc3n[nH]c(C)c32)cc1Cn1cc([N+](=O)[O-])cn1 (stereo unspecified)
-11,0.1,-4,-3,0.63,i,2.9,CCc1c(C)nc2ncnn2c1Nc1ccc(C)cc1
-3.5,0.4,3,1,0.7,i,0.7,COc1c(S(=O)(=O)Nc2cccnc2)ccc(Cl)c1Cl
-0.6,-1.6,-21,-7,0.72,.,2.2,N#CC1=C(SCC(=O)NCc2ccccc2)NC(=O)CC1c1ccco1 (stereo unspecified)
-2.0,.,-4,.,.,.,6.1,Cc1ccc(N2C(=O)c3cccc4c(C(=O)O)ccc(c34)C2=O)cc1
-3.6,-52,44,6,0.63,.,-5.6,O=C(C1CCCO1)N1CCN(Cc2c(O)ccc3ccccc23)CC1 (stereo unspecified)
-5.8,-1.6,0,6,0.64,.,17,Cc1ccc(C2=N/C(=C\N(C)C)C(=O)O2)cc1
2.2,1.7,1,7,0.67,i,-1.7,CC(=O)NC(Cc1cccc(F)c1)C(=O)NC1CCN(C(=O)Nc2ccccc2)CC1 (stereo unspecified)
8.1,4.0,-3,0,0.7,.,1.8,Cc1ccc(OCC(=O)NNC(=O)Cc2ccc(S(=O)(=O)N3CCOCC3)s2)cc1
-3.4,1.4,-3,5,0.74,.,-36,CC1(C)CC(=O)C2=C(C1)c1c(ccc3ccccc13)NC2c1ccc(Br)o1 (stereo unspecified)
2.3,9.5,.,4,0.78,.,4.1,CCOC(=O)c1sc(NC(=O)CSc2nncs2)c(C(=O)OCC)c1C
5.6,0.5,.,11,0.69,i,-0.4,CN(c1ccc(C(=O)N2CCN(c3ccccc3F)CC2)cc1)S(=O)(=O)c1ccccc1
5.8,2.0,-2,-12,0.69,i,-2.5,CC(C)CCOc1ccc(C(=O)NCC(c2ccco2)N(C)C)cc1 (stereo unspecified)
1.1,-2.1,-2,3,0.62,.,2.1,Cc1ccc(O)c(C(=O)CC(=O)c2cccc(F)c2)c1
6.5,11,32,10,0.74,.,0.4,CCc1nc(SCC(=O)N2CCCc3ccccc32)c2oc3ccccc3c2n1
-4.7,1.9,-3,11,0.72,i,4.0,CC1CCN(C(=O)c2ccccc2NC(=O)Nc2ccccc2)CC1
0.6,3.5,5,1,0.74,.,3.8,CC(=O)Nc1ccc(S(=O)(=O)NC(CC(=O)NCCC2=CCCCC2)C(C)C)cc1 (stereo unspecified)
4.5,7.0,-3,0,0.67,.,0.2,COc1ccc(S(=O)(=O)N2CCOCC2)cc1NC(=O)Cc1c(Cl)cccc1Cl
2.7,7.3,3,7,0.72,i,4.7,O=C(CCl)N(CCCNC(=O)C(F)(F)F)c1ccc([N+](=O)[O-])cc1
3.1,-0.8,0,-6,0.66,i,0.9,CCC(C(=O)NCCCc1ccccc1)n1nc(C)c2c(C)n(-c3ccccc3)nc2c1=O (stereo unspecified)
1.1,-0.7,-2,4,0.65,i,5.0,Nc1cccc2nsnc12
-0.5,-0.9,2,-3,0.66,.,-0.4,CC1CCCN(CCCNC(=O)C2CC(=O)N(c3ccc(F)c(Cl)c3)C2)C1 (stereo unspecified)

# (listing goes on)
LANA-H2A inh,HNF4A DNA FP,ALR H2O2 inh,B2AR ag,E coli growth,FGF22 binding,UCH37 DUB inh,compound
2.4,1.4,-5,-12,0.69,.,4.8,Cc1cc(C)n(-c2nc(C)nc(NCc3ccccc3)n2)n1
-1.8,2.3,-4,6,0.71,i,0.4,COc1cccc(C(=O)COC(=O)C2CC(=O)N(c3ccc(Oc4ccccc4OC)cc3)C2)c1 (stereo unspecified)
-1.2,3.3,14,-8,0.64,i,3.8,Cc1ccc(-c2nnc(NCCCO)c3ccccc23)cc1
-1.4,14,-6,-15,.,i,.,COc1ccc(/C(C)=N/OC/C(O)=C(\C#N)c2nc3ccccc3[nH]2)cc1
1.7,2.2,9,9,0.74,i,6.9,CC(C)=CCc1c(O)cc2c(=O)c3ccc(O)cc3oc2c1O
1.2,-0.5,-16,-1,0.69,.,0.8,CCn1c(=O)c(NC(=O)c2ccccc2)c2n(c1=S)CCCCC2
-0.2,4.1,-7,0,0.68,.,1.2,CCCCOC(=O)Nc1nnc(CCOCC)s1
.,2.1,.,11,0.69,.,8.3,Cn1c(=O)c2c(nc(SCC(=O)N3c4ccccc4CCc4ccccc43)n2C)n(C)c1=O
0.1,1.3,-14,13,0.7,i,7.2,O=C(CCC(=O)OCC(=O)c1ccc(C(F)(F)F)cc1)OCC(=O)c1ccc(C(F)(F)F)cc1
2.3,-2.5,0,2,0.76,.,5.4,N#Cc1c(NC(=O)CSc2ncn(-c3ccccc3)n2)sc2c1CCCC2
2.8,-0.2,93*,-2,0.68,i,-0.6,COc1ccc(N2CCN(C(=O)c3cccc(NC4=NC5CS(=O)(=O)CC5S4)c3)CC2)cc1 (stereo unspecified)
-1.2,2.7,0,-3,0.7,i,1.4,COc1cccc(OC)c1C(=O)Nc1cccc(-n2cnnn2)c1
1.4,-0.4,-4,4,0.68,.,-0.3,Cc1cc(NC(=O)c2ccco2)ncc1NC(=O)Cc1ccccc1

# Source: PubChem (several laboratories)
